Source: PubChem (National Center for Advancing Translational Sciences (NCATS))
AmpC nodet inh = AmpC beta-lactamase inhibition, detergent-free assay; P00811; AID 585; AmpC nitrocefin hydrolysis, absorbance 480 nm, no detergent; potencies from a single point are estimates; 1.8% of 71,000 active; Potency, µM (series often up to 28.7 µM), without a hit: top-dose activity change, negative = inhibition; active = falling curve, for most hits resting on a single point; inconclusive = weak or doubtful change; inactive = flat or rising curve; note: % of control where 0% means no effect; about half of the hits show no inhibition at the top dose; a quarter of the inactives give rising signals
Target sequence (P00811 whole entry, looked up): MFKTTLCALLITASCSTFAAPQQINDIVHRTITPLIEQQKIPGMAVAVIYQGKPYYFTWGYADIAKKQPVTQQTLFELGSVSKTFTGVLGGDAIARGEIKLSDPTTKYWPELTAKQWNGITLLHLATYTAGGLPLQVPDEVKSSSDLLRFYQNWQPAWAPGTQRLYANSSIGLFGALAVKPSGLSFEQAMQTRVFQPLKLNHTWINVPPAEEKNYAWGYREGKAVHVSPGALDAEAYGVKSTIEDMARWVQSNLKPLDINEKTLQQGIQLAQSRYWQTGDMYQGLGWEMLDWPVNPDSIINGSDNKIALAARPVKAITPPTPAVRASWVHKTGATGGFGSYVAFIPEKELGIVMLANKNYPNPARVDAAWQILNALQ
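AmpC, 20 mM phosphate pH 7.0; 15 min cpd preinc, RT; start with nitrocefin (800 uM stock); A480 kinetic read, 20 s intervals, 4 min. No-enzyme wells = negative control.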
Numbers without * were called inactive; u = inconclusive; & = joins results of further samples; [ ] = dose if it differs, or a comment. Potency is the fitted concentration of half-maximal effect.

SMILES	AmpC nodet inh
NC(=O)C1CC(=O)N(c2ccc(OCC(=O)Nc3cccc(C(F)(F)F)c3)cc2)C1 (centres undefined)	39%
COc1ccc(NC(=O)CCc2nc(-c3ccc(C)cc3)no2)c(OC)c1	4%
Cc1cc(C(=O)OCC(=O)N2CC(=O)Nc3ccccc32)no1	-10%
Cc1ccccc1-c1nc(CN2CCC(C(=O)NCCCN3CCOCC3)CC2)c(C)o1	26%
O=C(C1CCCO1)N1CCN(c2c3c(nc4cc(-c5ccc(F)cc5)nn24)CCC3)CC1 (centres undefined)	121%
COc1ccccc1N1CCN(C(=O)c2cc(C3CC3)on2)CC1	55%
COc1cc(C2N(c3ccc(Cl)cc3)C(=O)C3CCCN32)cc(OC)c1OC (centres undefined)	71%
CCC12CN3CC(CC)(CN(C1)C3c1ccc(OC(C)C)cc1)C2=O (centres undefined)	45%
Cc1ccc(C2CC(c3ccc(C)cc3)n3nc(N)nc3N2)cc1 (centres undefined)	82%
C=CCN1CCc2c(cc(O)c(O)c2Cl)[C@H](c2ccccc2)C1	-15%
O=C(c1ccccc1)c1cn(CC(=O)N2CCCC2)c2ccccc12	4µM*[single pt active]
CCOC(=O)c1ccc(N2C(=O)c3n[nH]c(C)c3C2c2ccc(OC)c(OC)c2)cc1 (centres undefined)	75%
O=C(COc1ccccc1)N1CCN(C2CCCC2)CC1	0%
O=C(CCCNS(=O)(=O)c1ccc(Br)cc1)N1CC[C@@]2(O)CCCC[C@H]2C1	67%
C/C(Nc1ccc(F)cc1)=C(/C#N)C(N)=O	-6%
CCS(=O)(=O)c1nc(NC(C)=O)n[nH]1	-9%
Cn1cc(-c2nc3cnc(N4CCNCC4)nc3n(C)c2=O)c2ccccc21	60%
CCOc1cccc(NC(=O)Cc2cccs2)c1	6%
O=C(O)CCc1ccc(-c2ccccc2)n1NC(=O)c1ccco1	7%
Cc1cc(C)n(-c2nc3c(c(=O)[nH]c(=O)n3C)n2Cc2ccc(F)cc2)n1	36%
O=C(Oc1ccc(-c2cnc3ccccc3n2)cc1)c1ccco1	10%
CC(C)C(OC(=O)c1ccco1)C(=O)NC1CCCCC1 (centres undefined)	3%
COc1ccccc1NC(=O)CSc1nccc(=O)[nH]1	13%
COc1ccc(C2(O)CC3CCC(C2)N3c2cc(C)nc(-c3ccccc3)n2)cc1 (centres undefined)	80%
CCCCCCN=C(C)c1c(O)n(CCCC)c(=O)[nH]c1=O	21%

Remaining list, next part:
SMILES	AmpC nodet inh
CCC(=NCCCN(CC)CC)c1c(O)n(C2CCCCC2)c(=O)[nH]c1=O	5%
OCCCNCc1ccncc1	-4%[5.75 µM]
Cc1c(NC(=O)c2cc(C(C)C)on2)c(=O)n(-c2ccccc2)n1C	-5%
COc1cccc(Cn2c(=O)c(-c3cccs3)nc3cnc(N4CCN(C)CC4)nc32)c1	131%
O=C(CN(CC(=O)N1CCOCC1)S(=O)(=O)c1ccc(Br)s1)N1CCOCC1	4%
COc1ccc(Cn2c(CCC(=O)Nc3ccc(CC#N)cc3)nc3cccnc32)cc1	26%
Cc1nc2cnc(OCc3ccccc3)nc2n(Cc2ccc(F)cc2)c1=O	30%
COc1ccc(-n2c(Cn3c(=O)sc4ccccc43)nnc2SCC(=O)N2CCCCC2)cc1	116%
COc1ccc(C(=O)CSc2nc3nc(C)cc(C)c3c(=O)[nH]2)cc1OC	0%
c1cn(-c2ncnc3sc4c(c23)CCCC4)cn1	-5%
Cc1cc(C)n(CCOC(=O)C2C(C=C(Cl)Cl)C2(C)C)n1 (centres undefined)	74%
CCOc1cccc(C=Nc2cc(C)cc(C)c2O)c1O	6%
CC(=O)NCCc1c[nH]c2ccc(O)cc12	-2%
CCOCCCn1c(=NC(=O)c2cccnc2)c(C(=O)OCC)cc2c(=O)n3ccccc3nc21	69%
CN(C)S(=O)(=O)c1ccc(C(=O)Nc2cccc(C(=O)O)c2)cc1	-5%
COc1cc(Br)cc(-c2nc3c(c(=O)[nH]c(=O)n3Cc3ccccc3)n2C)c1O	26%
N#Cc1c(NC(=O)CSc2nc3ccccc3c(=O)n2Cc2ccco2)sc2c1CCCC2	-25%
N[C@H](Cn1ccc(=O)[nH]c1=O)C(=O)O	7%
CC1=C(/C=C/C(C)=C/C=C/C(C)=C/C(=O)Nc2ccc(O)cc2)C(C)(C)CCC1	u
COc1ccccc1CN1C(=O)C2CC=CCC2C1=O (centres undefined)	-12%
Cc1ccc(S(=O)(=O)NCCC(=O)Nc2nnc(C3CC3)s2)cc1C	-19%
O=C(O)c1nc(-c2ccccc2)[nH]c1C(=O)O	-2%[5.75 µM]
Cc1cc(C(=O)OCC(=O)c2ccc3c(c2)OCCO3)c(C)o1	11%
COc1ccc(NC(=O)c2ccc(S(=O)(=O)N(C)C)cc2)cc1OC	4%
Cc1cc(OC(=O)CNC(=O)OC(C)(C)C)c2c(C)cc(=O)oc2c1	18%

Overlap with the part before: four compounds, then new ones.
SMILES	AmpC nodet inh
O=C(O)c1nc(-c2ccccc2)[nH]c1C(=O)O	-2%[5.75 µM]
Cc1cc(C(=O)OCC(=O)c2ccc3c(c2)OCCO3)c(C)o1	11%
COc1ccc(NC(=O)c2ccc(S(=O)(=O)N(C)C)cc2)cc1OC	4%
Cc1cc(OC(=O)CNC(=O)OC(C)(C)C)c2c(C)cc(=O)oc2c1	18%
Cc1ccc2[nH]c(=O)c(C(c3nnnn3CC3CCCO3)N3CCc4ccccc4C3)cc2c1 (centres undefined)	82%
COc1ccccc1N1CCN(C(=O)CSc2nnc(NC(=O)C3CCC3)s2)CC1	93%
CC(C)CCNC(=O)CN(CCN1CCOCC1)C(=O)Cn1nnc(-c2ccc(F)cc2)n1	82%
NC(=O)CSc1nnc(Cn2c(=O)sc3ccccc32)n1-c1ccccc1	30%
CN1CCN(c2nc3c(c(=O)n(C)c(=O)n3C)n2C)CC1	-10%[5.75 µM]
Cc1cc(NC(=O)c2cc(-c3ccc4c(c3)OCO4)on2)n(-c2ccccc2)n1	29%
CC(=O)N1CCc2cc(C(=O)CN3CCCN(Cc4ccc(F)cc4)C3)ccc21	111%
Nc1nc(C2CCCN2S(=O)(=O)c2ccc(Cl)cc2)cs1 (centres undefined)	-7%
Cn1cnnc1SCC(=O)Nc1ccccc1Sc1ccccc1	14%
COc1ccc(C2SCC(C(=O)O)N2C(C)=O)cc1OC (centres undefined)	6%
O=C(Nc1ccc(Br)cc1Cl)Nn1cnnc1	-11%
Cc1cc(C(=O)OCn2nnc3ccccc3c2=O)c(C)n1-c1ccccc1	7%
Cc1ccc(-c2n[nH]c(=S)n2C)cc1	-1%
CCOC(=O)c1sc(=NC(=O)c2ccc(S(=O)(=O)N3CCOCC3)cc2)n(C)c1C	61%
CCOCCCNC(=O)Cn1nc(-c2ccccc2)ccc1=O	1%
CC1(C(=O)O)C=CCN1C(=O)c1ccccc1 (centres undefined)	-1%
CCC(=Nc1ccc(OC)cc1OC)c1c(O)[nH]c(=O)[nH]c1=O	-12%
O=C(NCc1ccco1)c1cc(-c2ccccc2)on1	3%
CCOC(=O)C1CCCN(CC(=O)Nc2c(C(=O)OC)[nH]c3ccc(Cl)cc23)C1 (centres undefined)	76%
CCCn1c(C)nc2c(NC(C)CN(C)C)nc(C)nc21 (centres undefined)	-2%
COc1cccc(N(C(=O)c2ccn[nH]2)C2(C(=O)Nc3c(C)cccc3C)CCCCC2)c1	43%
Cc1cc2ncn(/N=C/c3cc(Br)ccc3O)c2cc1C	0%
O=C(CCN1Cc2ccccc2C1)c1ccc2c(c1)OCCO2	10%
Cc1[nH]nc2c1C(C(C)C)C(C#N)=C(N)O2 (centres undefined)	-8%
CCOC(=O)c1c(NC(=O)c2csc(C)c2)sc(C(C)=O)c1C	25%

Among those listed so far, these contain a cyano group:
SMILES	AmpC nodet inh
C/C(Nc1ccc(F)cc1)=C(/C#N)C(N)=O	-6%
COc1ccc(Cn2c(CCC(=O)Nc3ccc(CC#N)cc3)nc3cccnc32)cc1	26%
N#Cc1c(NC(=O)CSc2nc3ccccc3c(=O)n2Cc2ccco2)sc2c1CCCC2	-25%
Cc1[nH]nc2c1C(C(C)C)C(C#N)=C(N)O2 (centres undefined)	-8%

Additional compounds follow.
SMILES	AmpC nodet inh
CCN(CC)CCN1C(=O)C(O)=C(C(C)=O)C1c1ccccc1 (centres undefined)	-3%
COc1ccc(C2(O)CC3CCC(C2)N3c2nc(C)cc(C)c2C#N)cc1 (centres undefined)	24%
O=C(Cn1nnc(-c2ccc3c(c2)OCO3)n1)NCc1ccco1	-12%
CCOC(=O)c1c(NC(=O)CSc2nc(C)cc(C)c2C#N)sc(C(C)=O)c1C	43%
O=C1NC(c2ccco2)Nc2ccccc21 (centres undefined)	-9%
Cc1ccc(-c2cc(C(F)(F)F)n3ncc(C(=O)N4CCN(C)CC4)c3n2)cc1	10%
CNC(=O)NC(=O)CSc1cccc(C(F)(F)F)c1	-5%
O=C(c1cc(F)c(F)cc1Cl)N1CCOCC1	-5%
COc1ccc(Cc2nnnn2CC(=O)O)cc1	-6%
O=C(CCC(=O)N1CCCc2ccccc21)N1CCN(S(=O)(=O)c2ccccc2)CC1	77%
COc1ccccc1NC(=O)CN1CCN(c2ccc(Cl)cc2)CC1	79%
Cc1c(C(=O)OCCOC(C)C)[nH]c2c1C(=O)CC(C)(C)C2	26%
Cc1ccc(-c2nc3ccccc3o2)cc1NC(=O)c1ccc2c(c1)OCO2	u
Cn1c(=O)c2c(ncn2CC(=O)N2CCN(c3ccccc3F)CC2)n(C)c1=O	-1%
C=CCN1CC[C@@]23c4c5ccc(O)c4O[C@H]2/C(=N\N=C2/CC[C@@]4(O)[C@H]6Cc7ccc(O)c8c7[C@@]4(CCN6CC=C)[C@@H]2O8)CC[C@]3(O)[C@@H]1C5	59%&22%
O=C(CCC1CCCC1)NCc1ccccn1	9%
Nc1ccc(N2CCCCC2)cc1N1CCCCC1	13%
COCC(=O)N1CCC2(CC1)CN(Cc1nccs1)C2	12%
Cc1cc(C(=O)Nc2ccc3c(c2)OCCO3)c(C)o1	2%
O=C(O)c1ccccc1OCCOc1ccccc1	-7%
Brc1ccccc1Cn1c(-c2cncs2)nc2ccccc21	58%
CC1=C(C(=O)Nc2ccc(C)cc2)C(c2ccc(C)o2)C2=C(CC(C)(C)CC2=O)N1 (centres undefined)	24%
O=c1[nH]c2cc3c(cc2cc1CN(Cc1cccs1)Cc1nnnn1Cc1ccco1)OCCO3	18%
Cc1ccc(NC(=O)Cn2cnc3c(=O)n(C)c(=O)n(C)c32)c(C)c1	1%
O=C(O)CCc1nn2c3ccccc3nc2n(-c2ccccc2)c1=O	-6%

Remaining list, next part
SMILES	AmpC nodet inh
O=C(O)C1C2C=CC(C2)C1C(=O)NCCCn1ccnc1 (centres undefined)	-8%
Cc1cnc(CNc2ncncc2-c2ccoc2)cn1	19%
O=C(CCn1nc(-c2ccc(Cl)cc2)ccc1=O)N1CCN(c2ccccn2)CC1	128%
Cc1ccc(Oc2cc(C)nc(-c3ccccc3O)n2)cc1	-1%
O=C(O)c1cn(-c2ccccc2)nc1-c1cccnc1	0%
CCC(Oc1ccc(C)c(C)c1)C(=O)O (centres undefined)	0%
CCN1CCN(c2ncc3c(n2)CC(c2ccc(OC)c(OC)c2)CC3=O)CC1 (centres undefined)	59%
CCCN(c1nc(C)cc(OC)n1)S(=O)(=O)c1ccccc1	-5%
CC(Nc1ccc(Br)cn1)c1cc(Cl)ccc1O (centres undefined)	-20%
COc1ccccc1N(CC(=O)Nc1ccc2c(c1)OCO2)S(=O)(=O)c1ccccc1	-8%
COc1ccc(-c2cc(=O)c3ccccc3s2)cc1	38%
CCOC(=O)N1CCN(C(=O)C2CC(c3cc(OC)ccc3OC)=NO2)CC1 (centres undefined)	37%
Cc1nc(Nc2ccccc2)[nH]c(=O)c1CCC(C)C	2%
COc1cccc(C2=NOC(C(=O)NC(C)(C)C)C2)c1 (centres undefined)	6%
C[C@H](N)Cc1c[nH]c2ccc(OCc3cccs3)cc12	24%&4%
CCOc1ccc(N(CC)C(=O)COc2cc(=O)n(C)c3ccccc23)cc1	112%
O=C(Nc1ccc(NC(=O)c2ccco2)cc1)c1cnccn1	-2%
C[C@@H]1O[C@H]1P(=O)(O)O	1%
O=C(NC1CCS(=O)(=O)C1)c1ccc(S(=O)(=O)NCC2CCCO2)cc1 (centres undefined)	-3%
CC(=O)c1ccc(N2CCN(C(=O)C3CCCN(S(=O)(=O)c4cnc[nH]4)C3)CC2)cc1 (centres undefined)	18%
COC(=O)c1ccc(C(NC(=O)OCc2ccccc2)/C(F)=C/[C@@H](C)C(=O)NCCO)cc1 (some centres undefined)	126%
CCCc1cc(-c2ccc(O)c(OCC)c2)c(C#N)c(N)n1	1%
CC(C)c1nc2sc3c(NCc4ccco4)ncnc3c2c2c1COC(C)(C)C2	-10%
CC(=O)Nc1cccc(C(=O)Oc2cccc(C)c2)c1O	22%
CCCCn1c(SCc2nnc(-c3ccccc3)o2)nc2c1c(=O)n(C)c(=O)n2C	111%

Additional records:
SMILES	AmpC nodet inh
Nc1ccc(C(=O)c2ccc3c(c2)OCCO3)cc1N	-5%
COc1ccc(C2(O)CCN(C(=O)c3ccc4c(c3)OCO4)CC2)cc1	15%
CSc1ccc(Cl)c(C(=O)NCC(C)C)c1	-6%
CC(C)OC(=O)CSc1nnc(-c2cccnc2)n1Cc1ccccc1	13%
Nc1nc2n(n1)C(c1cccs1)CC(c1ccccc1)N2 (centres undefined)	14%
Cc1n[nH]c(C)c1S(=O)(=O)N(CC(=O)N1CCc2ccccc21)c1ccc(C(C)C)cc1	4µM*[single pt active]

Reformatted: 4 of the compounds above.
SMILES: CCN1CCN(c2ncc3c(n2)CC(c2ccc(OC)c(OC)c2)CC3=O)CC1 (centres undefined)
  AmpC nodet inh: 59%
SMILES: O=C1NC(c2ccco2)Nc2ccccc21 (centres undefined)
  AmpC nodet inh: -9%
SMILES: COc1ccc(C(=O)CSc2nc3nc(C)cc(C)c3c(=O)[nH]2)cc1OC
  AmpC nodet inh: 0%
SMILES: COc1ccc(-c2cc(=O)c3ccccc3s2)cc1
  AmpC nodet inh: 38%

The list is partial; the hit share may differ from the screen's.
